High-throughput results (PubChem)
Sa helicase inh – inhibitors of S. aureus replicative helicase, primary screen, biochemical, fluorescence unwinding readout; purified S. aureus helicase, fluorescence unwinding assay; about half of the hits fall short of the stated cut; inhibition, %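 (tested at about 80 µM)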; 120,000 compounds, 0.05% hits;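 active means both duplicates at 50% or more, or one of them with a favoured structure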;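 further: 0% = mean of negative control wells and 100% = mean of positive control wells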
MgrA DNA FP – S. aureus MgrA activity modulators, primary screen, biochemical, S. aureus Newman, fluorescence polarization; MgrA-DNA binding; inhibition, %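 (about 10 µg/mL by stock and volumes)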; 84,000 compounds, 0.13% hits;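 active means above 50% in either of two replicates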;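 further: 0% = protein plus DNA without compound and 100% = DNA alone without protein; higher means less MgrA bound to DNA so lower polarization; one replicate is shown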
Starred values were filed as active, the others as inactive; . = not tested or not shown; & = joins results of further samples. Some of the compounds tested. The share of hits here may be higher or lower than overall.

Results follow in this order: MgrA DNA FP, Sa helicase inh
Cc1ccccc1CN1CC2CC(C1)c1cccc(=O)n1C2 (stereo not given)
    -3.8, 19.0
COC(=O)c1ccccc1S(=O)(=O)NC(=O)N(C)c1nc(C)nc(OC)n1
    ., -6.0
COc1ccc(CC2C(=O)NC(=O)N(c3cccc(Cl)c3)C2=O)cc1 (stereo not given)
    1.9, -2.0
COc1ccn(C)c(=O)c1C#N
    -1.6&0.1, 8.0
Cc1ccccc1CCN
    ., -8.0
Cc1ccc(C(O)CN)cn1 (stereo not given)
    -1.4, 18.0
CC(C)CC(NC(=O)C1CCCCC1)C(=O)N1CCC2(CC1)OCCO2 (stereo not given)
    ., 2.0
O=C(N/N=C\C1C(=O)NC(=S)N(c2ccccc2)C1=O)c1ccc(O)cc1 (stereo not given)
    ., -31.0
COc1cccc(CNCCc2cccc(F)c2)c1
    ., -2.0
NCCCN1CCN(Cc2ccccc2)CC1
    ., 13.0
CCC(C)N1CCN(Cc2ccccc2)CC1 (stereo not given)
    -0.6, 14.0
O=C1NC(=O)C(=Cc2ccccn2)C(=O)N1
    -1.2, .
Cc1cc(C)cc(OCC(=O)N2CCN(Cc3ccccc3)CC2)c1
    ., -5.0
CCOc1ccccc1C1SCC(=O)Nc2c1c(=O)[nH]n2C1CCCC1 (stereo not given)
    ., 1.0
CCNC1(c2cccs2)CCCCC1=O (stereo not given)
    -1.4, .
CCc1cccc2c(/C=N/O)c[nH]c12
    ., 25.0
CN1C(=O)N(C)C(=O)C(CCc2ccncc2)(CCc2ccncc2)C1=O
    ., 21.0
CCC(=O)OC(Cc1ccccc1)(c1ccccc1)C(C)CN(C)C (stereo not given)
    4.0, .
Cc1cc(C(=O)N2CCC3(CC2)OCCO3)no1
    -1.4, .
O=c1oc(-c2ccc(F)cc2)nc2ccccc12
    -1.0, -2.0
CN1CCc2cc3c(cc2[C@H]1[C@@H]1OC(=O)c2c1ccc1c2OCO1)OCO3
    -1.2, .
COc1ccc(C2N3CCCN23)cc1 (stereo not given)
    ., 17.0
O=c1cccc2n1CC1CC2CN(CC(O)COc2ccccc2)C1 (stereo not given)
    ., -2.0
COC1=CC23CCN(C)C(Cc4ccc(OC)c(O)c42)C3=CC1=O (stereo not given)
    1.1, 5.0
O=c1cc(CCl)nc2nc[nH]n12
    ., 12.0
COc1ccccc1N1CCN(Cc2ccc(C)cc2)CC1
    -0.6, .
O=C1NC(=O)N(CCC2=CCCCC2)C(=O)/C1=C/c1cnc(-c2ccccc2)nc1
    34.0, 14.0
O=C1CC(C(=O)c2cccs2)CO1 (stereo not given)
    1.4, .
CC(O)CNC1CCC2CCCCC2C1 (stereo not given)
    ., -8.0
c1cc(CN2CCNCC2)cs1
    ., -11.0

Looked up one by one from above:
Results follow in this order: MgrA DNA FP, Sa helicase inh
CN1CCc2cc3c(cc2[C@H]1[C@@H]1OC(=O)c2c1ccc1c2OCO1)OCO3
    -1.2, .
CCc1cccc2c(/C=N/O)c[nH]c12
    ., 25.0

New compounds follow.
Results follow in this order: MgrA DNA FP, Sa helicase inh
Cc1cc(O)c(C(=O)Nc2ccc(Cl)c(Cl)c2)c(=O)n1CC1CCCO1 (stereo not given)
    ., 5.0
CCCCC[C@@H](/C=C/C=C\C/C=C\C/C=C\CCCC(=O)O)OO
    1.6, .
Cc1ccccc1-c1nc2ccccc2c(=O)n1C
    -2.1, 4.0
C[C@@H]1O[C@@H](O[C@H]2CC[C@]3(C=O)C4CC[C@]5(C)[C@@H](C6=CC(=O)OC6)CC[C@]5(O)C4CC[C@]3(O)C2)[C@H](O)[C@H](O)[C@H]1O (stereo not given in full)
    1.8, .
Cc1nc2cc(Cl)ccc2c(=O)n1-c1ccc(Cl)cc1
    5.4, .
Cc1cc(Br)c(O)c(Br)c1
    ., -10.0
CC(=O)N1CCN(CC(=O)Nc2ccc(C#N)c(Cl)c2)CC1
    ., -14.0
CC[C@@H](C)C(=O)O[C@H]1[C@H](O)[C@H]2[C@@H](CN3C[C@@H](C)CC[C@H]3[C@@]2(C)O)C2C[C@]34O[C@@]5(O)[C@@H](OC(=O)C(C)(O)CC)CC[C@@]3(C)[C@@H]5[C@@H](OC(C)=O)[C@@H](OC(C)=O)[C@H]4[C@@]21O (stereo not given in full)
    0.3, .
CN(C)C1(c2nnnn2CCOC(=O)Nc2ccc(Cl)cc2)CCCCC1
    0.2, 11.0
Cc1ccc(C=C(C#N)C#N)o1
    ., -7.0
Cc1cc(C)nc(N2Cc3ccccc3C2=N)n1
    -4.8, 35.0
Cn1c(C(=O)O)c(CC(=O)N2CCN(Cc3ccccc3)CC2)c2ccccc21
    ., -17.0
O=c1oc2ccccc2c(O)c1Cc1c(O)c2ccccc2oc1=O
    -0.5&-1.0, 18.0
CN(C)CCN(C)C
    ., -12.0
Cc1cc(C)nc(NC2=NCCN2)n1
    -1.0, 6.0
Cc1ccccc1OCCCn1cc(C(=O)C(C)(C)C)c2ccccc21
    0.7, 20.0
COc1ccc2c(c1)c(C(=O)O)c(C)n2C(C)C
    -2.9, 8.0
CCn1c2ccccc2c2cc(CN3CCN(C)CC3)ccc21
    1.4, 0.0
NS(=O)(=O)c1ccc(-c2ccc(C=C3C(=O)NC(=S)NC3=O)o2)cc1
    32.8, 9.0
CCOC(=O)c1c(C)n(Cc2ccccc2)c2ccc(OC(=O)c3cccc(Br)c3)cc12
    2.8, .
O=C(Cc1ccccc1)N1CCN(C2CCCC2)CC1
    1.0, 4.0
O=[N+]([O-])/C=C/c1ccccc1[N+](=O)[O-]
    4.6, .
COC1=CC(=O)OC(/C=C/c2ccccc2)C1 (stereo not given)
    -1.4, .
CCN(CC)S(=O)(=O)c1ccc(Cl)c(C(=O)Oc2cccc3cccnc23)c1
    2.3, .
O=C1NC(=O)N(CCc2ccc(F)cc2)C(=O)/C1=C\c1ccc(O)c(O)c1
    6.8, 10.0
CC(=O)OC1CCC2C3CCC4CCCC(=O)C4(C)C3CCC12C (stereo not given)
    -1.1, .
CN1C2CCCC1CC(=O)C2
    -2.9, .
O=C1NC(=O)C(O)(c2c(O)c3ccccc3n(Cc3ccccc3)c2=O)C(=O)N1
    -0.6, 3.0
CCNc1nc(NC(C)C)nc(SC)n1
    -3.2, .
CN1CCc2nc3sc4c(=O)[nH]c(=O)[nH]c4c3cc2C1
    0.9, 16.0
O=[N+]([O-])/C=C/c1ccc2c(c1)OCO2
    -1.8, .
C[C@H]1C(=O)O[C@@H]2CCN3CC=C(COC(=O)[C@](C)(O)[C@]1(C)O)[C@H]23
    -3.5&2.5, .
COC(=O)CN1C(=O)C2(C(C(=O)OC)=C(N)Oc3ccccc32)C2=C1CCCC2=O (stereo not given)
    -0.2, 5.0
S=C=Nc1ccccn1
    ., -6.0
Cc1cccc(C)c1NC1=NCCCS1
    0.0&3.1, .
CN1CCC(N2CCCCC2)CC1
    3.7, 1.0
CC[C@@]1(O)C[C@H](O)c2c(cc3c(c2O)C(=O)c2c(O)ccc(O)c2C3=O)[C@H]1C(=O)OC
    29.1, .
c1ccc(C2N3CCCN2CC3)cc1 (stereo not given)
    -0.5, 2.0
NCCC(=O)OCC1CCCN2CCCCC12 (stereo not given)
    1.6, -2.0
O=C1C=CC[C@H]2[C@@H]3CCCN4CCC[C@H](CN12)[C@H]34
    ., -3.0
O=S(=O)(c1ccccc1)N1CCCC1c1cccnc1 (stereo not given)
    -0.2, .
CCC(=Nc1ccccc1N)c1c(O)[nH]c(=O)[nH]c1=O
    -2.3, 14.0
COc1cccc(Oc2coc3cc(OC(=O)N(C)C)ccc3c2=O)c1
    0.3, 11.0
CCOC(=O)c1c(C)n(C(C)C)c2ccc(OC(=O)c3ccco3)cc12
    ., -20.0
CC(=O)OCC1=C(C(=O)O)N2C(=O)[C@@H](N)[C@H]2SC1
    4.1, .
CC1CCCN(CC(=O)c2ccccc2F)C1 (stereo not given)
    ., -1.0
COC(C)(C)CCC[C@H](C)C/C=C/C(C)=C/C(=O)OC(C)C
    0.5, .
C[C@H]1O[C@@H](OC2CC[C@]3(C=O)[C@H]4CC[C@]5(C)[C@@H](C6=CC(=O)OC6)CC[C@@]5(O)[C@@H]4CC[C@]3(O)C2)C[C@H](O)[C@@H]1O (stereo not given in full)
    3.6, .
O=C(Cn1ncc2c3ccccc3n(Cc3ccccc3F)c2c1=O)N1CCC2(CC1)OCCO2
    ., -5.0
CC1(C)CN=C(NCc2ccccc2Cl)S1
    -0.8, 10.0
CN1CCC(OC(=O)C2c3ccccc3Oc3ccccc32)CC1
    ., -8.0
FC(F)(F)c1cccc(C2NCCc3[nH]cnc32)c1 (stereo not given)
    4.2, .
NCCc1ccncc1
    ., -20.0
Cc1nc2ccccc2c(C)c1CC(=O)N1CCN(CCOc2ccccc2)CC1
    ., -6.0
CN1CCN(C(=O)Cc2ccccc2)CC1
    -1.6, .
O=C(N1CC2CC(C1)c1cccc(=O)n1C2)C(F)(F)F (stereo not given)
    2.0, 24.0
CCOc1ccccc1NC1=NC(C)(C)CS1
    -0.1, -13.0
O=C(Nc1cccc(Cl)c1)OC1CN2CCC1CC2 (stereo not given)
    1.1, .
Clc1ccc(CN2CCCCC2)cn1
    -0.8, .
COc1ccc(N2CCN(CCN)CC2)cc1
    2.7, 7.0

Remaining list, next part
Results follow in this order: MgrA DNA FP, Sa helicase inh
CN(C)CCC(=O)c1ccc(Br)cc1
    -4.6, 12.0
CC1(C)CC(C)(O)P(C)(=O)O1 (stereo not given)
    ., -1.0
O=c1c2ccccc2nc(SC(F)F)n1-c1ccccc1
    ., 2.0
Cc1nn(Cc2ccccc2Cl)c(C)c1C(=O)OCC(=O)Nc1sccc1C(N)=O
    ., -10.0
O=P1(Nc2ccc(Br)cc2)CC=CC1
    ., -19.0
CC(=O)OC12CCC(=O)C=C1CCC1C3CCC(=O)C3(C)CCC12 (stereo not given)
    -1.7, .
O=C(O)C12C3CCCC1C32c1ccccc1 (stereo not given)
    -2.1, 4.0
COCc1cc(OC(=O)N(C)C)nc(COc2ccc(Cl)cc2)n1
    -2.8, .
c1ccc(CN2CCN(Cc3ccccc3)CC2)cc1
    ., -8.0
Cc1ccc(Cn2nc(C(=O)Nc3ccccc3)cc2C)cc1
    -1.4, .
Cc1c(Cc2ccc(F)cc2)c(=O)oc2cc(OC(=O)N(C)C)ccc12
    1.0, .
CCOC(=O)/C=C(\O)C(F)(F)F (tested in a mixture with another compound)
    0.5, .
OC(Cc1ccccc1)(c1ccccc1)C1CN2CCC1CC2 (stereo not given)
    -1.2, 1.0
Cc1cc(OC(=O)c2cccs2)c2c3c(c(=O)oc2c1)CCC3
    -0.3, 2.0
CCN(CC)P(=O)(c1nccn1C)N(CC)CC
    ., 5.0
COC(=O)CN1C(=O)C2(C(C(=O)OC)=C(N)Oc3c2c(=O)oc2ccccc32)c2ccccc21 (stereo not given)
    ., 16.0
O=C1/C(=C\c2ccc(N3CCCC3)cc2)N2CCC1CC2
    7.6, 7.0
Cc1cc(OC(=O)N(C)C)nc(-c2cccs2)n1
    0.6, .
COc1ccc(CNCC(=O)N2CCC3(CC2)OCCO3)cc1
    14.4, 15.0
O=C1C(c2ccccc2)C(=O)N(c2ccccc2)C(=O)N1c1ccccc1
    -1.0, .
CC(C)(O)[C@@H]1[C@H]2OC(=O)[C@@H]1[C@]1(O)C[C@H]3O[C@]34C(=O)O[C@H]2[C@]14C
    1.2, .
CCN1CCN(C(=O)Cc2c(C(=O)O)[nH]c3ccccc23)CC1
    -3.9, 9.0
O=c1cccc2n1CC1CC2CN(Cc2nnc(-c3ccccc3F)o2)C1 (stereo not given)
    ., -27.0
O=C1NC(=S)NC(=O)C1c1ccccc1
    8.2, 9.0
CC(C)(c1ccc(OCC2CO2)cc1)c1ccc(OCC2CO2)cc1 (stereo not given)
    -0.7, .
CC(=O)N1N=C(c2cccnc2)OC1(C)C
    -0.3, .
CC(C)c1ccc(-n2c(=O)[nH]c3ccccc3c2=O)cc1
    ., 20.0
CC(N)Cc1cn(Cc2ccccc2)c2ccccc12 (stereo not given)
    -2.0, 4.0
Cc1nn(C)c(C)c1P(=S)(N(C)C)N(C)C
    ., 9.0
Cc1cc(C(=O)Nc2ccccc2)nn1C(C)(C)C
    0.8, .
CCn1cc(CC(C)N)c2ccccc21 (stereo not given)
    -3.2, 4.0
CSc1ccc(C=C(C#N)C#N)cc1
    -2.0, .
CCOC(=O)C1=C(N)Oc2n[nH]c(C)c2C12C(=O)N1c3c(cc(C)cc32)C(C)CC1(C)C (stereo not given)
    -0.8, 10.0
CC(=O)OC1CCC2(C#N)[C@H]3CCC4(C)C(C5=CC(=O)OC5)CCC4(O)[C@@H]3CCC2(O)C1 (stereo not given in full)
    ., 2.0
O=C(CNC(=O)c1ccccc1)OCC1CCCN2CCCCC12 (stereo not given)
    -2.5, 9.0
C=CCOC(=O)c1cc(-c2ccc(C=C3C(=O)NC(=O)NC3=O)o2)ccc1Cl
    -1.3, .
CCOc1ccc(/C=C/[N+](=O)[O-])cc1
    -5.3, .
O=C(Cn1ncc2ccccc21)N1CCC2(CC1)OCCO2
    -0.5, 16.0
COc1ccc(C2N3CC(C)(C)CN23)cc1 (stereo not given)
    0.7, 13.0
COC(=O)C1=C(N)OC2=C(C(=O)CCC2)C12C(=O)Nc1ccccc12 (stereo not given)
    0.3, 14.0
CC(=O)OC1CCC23COC(CC4C5CCC(OC(=O)c6ccccc6)C5(C)CCC42)[C@@]3(Br)C1 (stereo not given in full)
    -1.6, .
O=C(Nc1ccc(C(F)(F)F)cc1)OC1CN2CCC1CC2 (stereo not given)
    -2.0, .
O=C(CCCN1CCC2(CC1)C(=O)NCN2c1ccccc1)c1ccc(F)cc1
    -0.6&0.6, .
